# Bioassay records (PubChem)
# Ecoli growth = E. coli growth inhibition | Escherichia coli growth, OD600, 23 h; active compounds read low | OD600 absorbance (no concentration beside the values) | actives 0.21% (n = 330,000);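 active = OD600 absorbance below the run mean of sample wells minus 3.6 SD, in any replicate, cut at about 0.56 in these data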;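 also: stock transfer was 300 nL into about 60 µL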
# MLL AF4-AF9 inh = inhibitors of human MLL-AF4/AF9 interaction. actives 0.47% (n = 350,000). AlphaScreen, biotin-AF4 peptide binding to FLAG-AF9. inhibition, % at 10 µM. P42568;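 active = every replicate reaching a set inhibition limit, whatever the replicate mean, cut at about 25% in these data; inconclusive = mean inhibition reaches that limit but some replicates miss it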;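 also: 0% = plate neutral control median and 100% = total signal loss; the record names both 10 and 1 µM as test concentration; the first replicate is given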
# Target sequence (P42568 whole entry, looked up): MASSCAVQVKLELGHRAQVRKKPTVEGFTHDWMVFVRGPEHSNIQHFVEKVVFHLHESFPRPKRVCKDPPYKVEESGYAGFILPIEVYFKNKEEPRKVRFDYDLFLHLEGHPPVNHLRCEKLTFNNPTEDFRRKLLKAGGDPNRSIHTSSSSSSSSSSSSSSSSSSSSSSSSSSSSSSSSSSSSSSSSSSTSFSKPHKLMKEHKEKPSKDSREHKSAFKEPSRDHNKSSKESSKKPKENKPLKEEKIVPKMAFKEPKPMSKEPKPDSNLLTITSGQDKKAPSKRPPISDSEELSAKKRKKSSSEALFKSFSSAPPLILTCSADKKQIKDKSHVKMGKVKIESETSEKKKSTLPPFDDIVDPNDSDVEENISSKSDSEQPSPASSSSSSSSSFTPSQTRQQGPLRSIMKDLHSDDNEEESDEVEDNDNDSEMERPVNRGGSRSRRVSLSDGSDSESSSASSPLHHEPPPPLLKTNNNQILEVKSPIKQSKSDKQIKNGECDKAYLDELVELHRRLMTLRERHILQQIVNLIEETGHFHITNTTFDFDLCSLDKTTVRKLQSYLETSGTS
# Vif A3G = HIV-1 Vif–A3G interaction blockers – biochemical, TR-FRET, GST-Vif 1-94, biotin-A3G peptide, dose response retest, primary screen (AID 1117319); TR-FRET GST-Vif / biotin-A3G peptide binding; higher % means a stronger effect; test concentration not given here; strong numbers were not always called active; inhibition, %; hits with a dose series show IC50 in µM; actives 0.57% (n = 260,000);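 active = above the screen mean plus three standard deviations and confirmed in dose response; inconclusive = results disagree or hit not tested in dose response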;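 also: Vif residues 1-94 fused to GST binding biotinylated APOBEC3G peptide 110-148; 0% = full assay without inhibitor and 100% = GST in place of GST-Vif; retest series ran down from 100 µM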
# RanGTP-Imp inh = inhibitors of RanGTP-importin-beta interaction, primary screen, biochemical, FRET, CFP-Ran, YFP-importin-beta, homogeneous; cell-free CFP-Ran/YFP-importin-beta FRET ratio; inhibition, % (concentration not given with the values); actives 1.1% (n = 300,000);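 active = most replicates above 15%; inconclusive = exactly half above 15%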;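 also: 0% = DMSO wells and 100% = Ran loaded with GDP instead of GTP; wells of about 40 µL received 100 nL stock; the first replicate is given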
# FGF22 binding = shifts melting point of recombinant human FGF22; Q9HCT0; recombinant FGF22 thermal shift, SYPRO orange fluorescence; percent of sucrose octasulfate shift, DMSO zero; calls only at 9.99 µM; actives 1.5% (n = 340,000); AID 651658;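 active = melting point raised past a set limit in the mean and every replicate; inconclusive = no clear call; three in four hits are not shown here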
# Target sequence (Q9HCT0 whole entry, looked up): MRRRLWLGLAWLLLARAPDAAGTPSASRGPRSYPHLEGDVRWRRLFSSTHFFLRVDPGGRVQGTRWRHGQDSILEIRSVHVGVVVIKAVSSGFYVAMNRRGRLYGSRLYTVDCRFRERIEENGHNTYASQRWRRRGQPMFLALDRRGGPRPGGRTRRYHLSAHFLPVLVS
# HNF4A DNA FP = change in binding of human HNF4 alpha to DNA | AID 1224865 | HNF4a-FITC DNA binding, fluorescence polarization, 1 h | actives 0.3% (n = 360,000) | activity change, % at 10 µM | P41235; in the data active = activity change above about 30%, passing the limit was not always enough;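 also: controls were the assay level and a saturating level of protein; the project sought stronger binding though the title names inhibitors; some compounds called inactive have numbers as strong as hits; positive values seem to mean higher polarization but the record does not say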
# UCH37 inh = inhibitors of human deubiquitinating enzyme UCH37. Q9Y5K5. purified proteasome/UCH37, Ub-AMC cleavage fluorescence. inhibition, % (concentration not given with the values). actives 0.33% (n = 330,000). AID 588478;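 active = mean of two replicates above 20%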;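 also: 0% = compound-free wells with enzyme and 100% = wells lacking proteasome; stock transfer was 100 nL into about 20 µL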
# Target sequence (Q9Y5K5 whole entry, looked up): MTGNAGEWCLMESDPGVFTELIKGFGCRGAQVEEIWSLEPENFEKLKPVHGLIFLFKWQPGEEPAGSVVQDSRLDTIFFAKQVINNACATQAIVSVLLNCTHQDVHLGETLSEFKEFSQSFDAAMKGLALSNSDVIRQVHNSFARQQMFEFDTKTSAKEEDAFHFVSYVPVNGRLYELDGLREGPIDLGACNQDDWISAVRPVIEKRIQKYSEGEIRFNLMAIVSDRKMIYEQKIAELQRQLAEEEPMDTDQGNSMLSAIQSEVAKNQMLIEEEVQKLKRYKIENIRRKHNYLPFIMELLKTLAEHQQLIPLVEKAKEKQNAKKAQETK
#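 Schedule: 30 min plus 25 min, room temperature / Material: human UCH37 within purified proteasomes / Technique: AMC fluorescence intensity at 355/460 nm / Buffer or medium: pH 7.4 Tris-HCl (50 mM) with ovalbumin, ATP-MgCl2, DTT / Controls: wells without proteasome as full block, compound-free enzyme plus substrate as uninhibited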
# Starred values were filed as active, the others as inactive; i = inactive; ? = inconclusive; · = no result given; & = joins results of further samples. The list is partial. The share of hits here may be higher or lower than overall.
SMILES,Ecoli growth,MLL AF4-AF9 inh,Vif A3G,RanGTP-Imp inh,FGF22 binding,HNF4A DNA FP,UCH37 inh
COc1ccc(-c2ncnc(C(F)(F)F)c2-c2csc(C)n2)c(O)c1,0.686,4.6,-12.2%,?,i,-1.6,5.7
CC(C)C(c1nnnn1C(C)(C)C)N1CCN(Cc2cccnc2)CC1 (centres undefined),0.696,1.0,8.7%,1.1,i,4.0,4.4
CCN(CC)S(=O)(=O)c1ccc(N2CCOCC2)c(NC(=O)c2ccc3ccccc3c2)c1,0.71,·,-10.7%,0.1,·,2.8,-10.3
O=C(NCCS(=O)(=O)N1CCN(c2ccccc2)CC1)c1ccc(Br)o1,0.64,-18.4,-8.0%,-2.1,i,1.8,5.8
Fc1ccccc1OCC1CCCN(Cc2nc(CC3CC3)no2)C1 (centres undefined),0.676,-1.5,1.9%,2.3,i,1.6,2.6
N#CC1=C(N)S[C@@H](C(=O)c2ccc(F)cc2)[C@@H]1c1cccs1,0.702,·,18.8%,1.1,·,-0.4,5.8
O=C1N/C(=C/c2cccs2)C(=O)N1Cc1ccccc1F,0.694,-2.3,-0.6%,-2.1,i,0.4,4.9
CCOc1ncccc1C(=O)OCC(=O)NCc1ccc(C(=O)OC)cc1,0.684,-2.0,·,·,i,9.1,-0.9
O=C(O)CN(CCc1ccccc1)S(=O)(=O)c1ccccc1,0.65,-1.4,3.1%,0.4,i,0.1,0.7
O=C1NC[C@H](CCCCN2C[C@H](Cc3ccc(O)cc3)N(CCc3ccccc3)C(=O)C2=O)N(CCc2ccc(O)cc2)C1=O,·,2.5,·,·,i,1.2,·
COc1ccc(-c2c(C)nn(-c3ccccc3)c2N)cc1,0.676,·,4.2%,-4.1,·,7.1,3.0
CCOc1ccc2nc(-c3ccccc3)nc(SCC(=O)OC)c2c1,0.671,-3.9,·,-1.3,i,-0.6,-18.4
COCn1c(-c2ccc(OC)c(OC)c2)nc2ccccc21,0.702,·,-2.7%,1.7,·,2.8,3.9
CCOc1ccc(N2C(=O)CC(Cc3ccccc3OC)C2=O)cc1 (centres undefined),0.653,1.2,-9.0%,-1.3,i,1.3,3.6
CC1Cc2ccccc2N1C(=O)COC(=O)c1ccco1 (centres undefined),·,-2.2,13.4%,·,i,-1.1,·
CN(C)CCCN(C(=O)COc1ccc(Cl)cc1)c1nc2cc3c(cc2s1)OCO3,0.686,3.6,-1.3%,-1.1,i,-0.6,4.2
COc1ccccc1NC(=O)CSc1nc2ccccc2c(=O)n1CCNC(C)=O,0.705,·,-6.9%,-4.7,·,-2.3,2.6
COCCNC(=O)CSc1ccc(C)cc1,0.714,·,17.7%,11.2,·,2.2,4.9
COc1ccccc1Nc1nc(N)nc(CN2CCN(c3ccccc3F)CC2)n1,0.655,·,1.6%,5.9,·,-1.2,1.8
O=S(=O)(Nc1ncccn1)c1cc(Cl)ccc1Cl,0.658,-1.7,·,5.4,i,-0.1,2.2
C[C@@H]1CN([C@@H](C)CO)C(=O)c2cc(C#CC(C)(C)O)cnc2O[C@@H]1CN(C)C(=O)c1ccccc1F,·,-0.1&-4.1&-3.5,·,·,i,-0.8,·
Cc1c(C(=O)OCC(=O)N2C(C)CCCC2C)oc2ccccc12 (centres undefined),0.66,-15.1,·,0.8,i,0.7,4.9
CCOC(=O)CCNC(=O)N1CCC(CCOc2ccccc2)(C(=O)OCC)CC1,·,-2.2,1.9%,-1.7,i,-4.1,·
Nc1ccc(Br)c2c1C(=O)c1ccccc1C2=O,0.677,·,2.8%,-6.5,·,·,7.4
COc1ccccc1OCC(=O)Nc1ccc(NC(=O)COc2ccccc2OC)cc1,0.739,0.1,-1.5%,?,i,-0.6,1.3
CCn1c(C2CCN(S(=O)(=O)c3ccc(OC)cc3)CC2)n[nH]c1=S,0.632,-4.8,-2.9%,?,·,1.9,0.4
COCCCn1c(SCC(=O)Nc2ccc(C)cc2)nc2ccccc2c1=O,0.71,-1.4,-6.0%,-0.9,·,2.9,6.3
O=C(NNC(=O)c1cc(S(=O)(=O)N2CCCCC2)ccc1Cl)c1ccccc1O,0.625,-1.6,16.6%,·,i,0.4,-0.3
Cc1cccn2cc(-c3cccc(NC(=O)c4cccs4)c3)nc12,0.652,2.6,5.4%,7.9,i,-0.1,1.7
COc1ccc(C(CNC(=O)c2ccc(NS(=O)(=O)c3ccc(F)c(C)c3)cc2)N(C)C)cc1 (centres undefined),0.682,-4.9,·,-0.4,i,3.4,-1.5
COc1ccc(NC(=O)Cn2nnc3sc4c(c3c2=O)CC(C)(C)OC4)cc1,0.657,·,-1.8%,-3.9,i,-3.2,4.7
OCCN(CCO)c1ncnc2c1oc1ccc(Br)cc12,0.671,·,?,-2.0,·,-3.1,3.0
CN(CC(=O)Nc1cccc(S(=O)(=O)N2CCCCC2)c1)Cc1ccc(F)cc1,0.698,2.0,·,·,i,3.4,4.1
Cc1cc(C)c(NC(=O)CNC(=O)COC(=O)C2CCN(c3ccc(C(F)(F)F)cn3)CC2)c(C)c1,0.731,1.6,4.2%,1.5,i,-0.6,-2.9
CN1CCN(C(=O)c2cnn(-c3ccccc3)c2NC(=O)c2ccccc2F)CC1,0.768,·,0.8%,1.8,·,0.9,0.2
O=C(NCc1nnc(SCC(=O)N2CCCC2)o1)c1ccccc1F,0.776,·,20.7%,4.7,·,2.2,-0.1
COc1ccc(C(C(=O)NC2CCCC2)N(C(=O)c2csnn2)C2CCCC2)cc1 (centres undefined),0.687,-1.5,·,-1.1,i,-7.4,2.2
CCC(C)Nc1nc(SC(C(C)=O)C(C)=O)nc(N(C)C)n1 (centres undefined),0.691,·,11.4%,2.7,·,3.0,4.2
CN(C)c1ccc(N2C(=NC(=O)C3CCCO3)SC3CS(=O)(=O)CC32)cc1 (centres undefined),0.705,18.1,-0.5%,4.7,i,0.8,6.1
Cc1ccc(-c2oc3ccccc3c(=O)c2OCC(=O)O)cc1,0.679,-2.1,32.8%,2.3,i,-4.3,-4.8
COc1cc(S(=O)(=O)N2CCN=C2c2ccccc2)ccc1Cl,0.745,0.3,-9.5%,5.2,i,1.2,2.7
Cc1nnc(SCC(=O)N(C)c2c(N)n(Cc3ccccc3)c(=O)[nH]c2=O)n1Cc1ccccc1,0.708,0.1,3.5%,-2.4,i,2.7,-0.2
COc1ccccc1-n1c(SCC(=O)N2CCOCC2)nc(O)c(Cc2ccccc2)c1=O,0.702,·,14.0%,-2.7,·,-2.0,1.4
COc1ccc(C2C3=C(CC(C)(C)CC3=O)Nc3n[nH]c(C)c32)cc1 (centres undefined),0.744,·,3.7%,6.4,·,1.8,-48.6
Cc1cc(S(=O)(=O)NC(C)C)ccc1OCC(=O)N1CCOCC1,0.672,·,10.3%,1.9,·,-3.5,1.4
CCN(C(=O)CSc1nnc(C2CC2)n1-c1ccccc1)C1CCS(=O)(=O)C1 (centres undefined),0.715,-2.3,-9.3%,·,i,-4.8,2.9
COc1ccc(OC)c(CN2CCN(C(=O)c3ccc(NS(=O)(=O)c4cccc([N+](=O)[O-])c4)cc3)CC2)c1,0.679,-4.5,-9.8%,-0.7,i,-3.3,3.5
COc1ccc2cc3cc(C(=O)NCCN4CCc5ccccc5C4)oc3nc2c1,0.622,·,-0.5%,3.5,·,3.9,i
O=C(CN1C(=O)C2(OCCCO2)c2ccccc21)NCc1ccccc1,0.695,·,1.7%,-0.7,·,-2.5,1.9
COc1ccccc1C(=O)Nc1cc(C)ccc1NC(=O)c1ccco1,0.656,0.7,·,2.7,i,-4.2,2.4
O=C(CC1NCCNC1=O)Nc1ccc2c(c1)OCCO2 (centres undefined),0.684,·,1.1%,·,·,2.5,3.6
CCc1ccccc1NC(=O)Nc1cnccn1,0.666,-0.7,·,2.8,i,0.1,1.3
Cc1ccc(OCC(=O)N(Cc2ccccc2)C(C)C)c([N+](=O)[O-])n1,0.688,·,·,-3.0,·,3.6,0.9
COc1ccc(NS(=O)(=O)c2ccc(C)c(C(=O)NCCCn3ccnc3)c2)cc1,·,1.1,·,·,i,-2.3,·
O=C(Nc1ccc(Cl)cc1)Nn1cnc2ccccc2c1=O,0.672,0.7,·,-4.4,i,-0.5,3.4
CCc1ccc(-c2cc(C)no2)cc1S(=O)(=O)Nc1cc(C)on1,0.711,-1.5,·,4.9,i,-4.1,0.9
COc1ccc(C(=O)NCc2nnc(SCC(=O)N3CCCCC3)o2)cc1,0.718,-2.5,·,-6.1,i,-0.4,1.4
CN(CC(=O)Nc1cccc(F)c1)C(=O)c1ccc2c(=O)n3c(nc2c1)CCC3,0.648,-10.9,-2.0%,7.6,i,-1.1,-3.5
O=C1c2ccccc2NC(c2ccccc2)N1c1ccc(O)cc1 (centres undefined),0.663,0.4,-0.6%,2.5,i,2.7,-23.9
CC(=O)c1cccc(S(=O)(=O)N2CCC(C(=O)O)(c3ccccc3)CC2)c1,0.635,1.7,·,-1.3,i,-3.8,3.8

# More results.
SMILES,Ecoli growth,MLL AF4-AF9 inh,Vif A3G,RanGTP-Imp inh,FGF22 binding,HNF4A DNA FP,UCH37 inh
CCNC(=O)NC(=O)COC(=O)c1ccccc1SCC(=O)NC(=O)NCC,0.639,·,26.1%,9.5,·,-2.6,-180.9
CCn1c2ccccc2c2cc(CC(N)=O)ccc21,0.679,2.8,-6.5%,1.1,i,0.5,2.3
Cc1cc(C)nc(NS(=O)(=O)c2ccc(N/C=C3\CCCC3=O)cc2)n1,0.739,·,-4.0%,5.1,·,3.5,18.5
O=C(CCN1CCN(CCO)CC1)Nc1ccccc1,0.686,3.9,·,2.0,i,-1.3,1.7
O=[N+]([O-])c1ccccc1S(=O)(=O)N1CCN(Cc2ccsc2)CC1,0.59,4.7,13.1%,3.2,i,6.2,0.9
Cc1cc(OC(C)C(=O)NCC(O)c2ccccc2)c2c(C)cc(=O)oc2c1 (centres undefined),0.68,-7.9,-0.5%,3.5,i,0.4,-86.6
CCOc1cnc(-c2c(-c3c(Cl)cccc3Cl)noc2C)o1,0.669,-0.7,14.0%,6.4,i,4.8,-2.1
CCOc1ccc(CCNC(=O)C(O)c2ccccc2)cc1 (centres undefined),0.782,·,1.8%,-1.0,·,-1.4,0.5
CC(C)N(C)C(=O)C(=O)c1cccn1-c1cccc(Cl)c1C#N,0.732,-0.1,4.9%,-4.3,i,5.1,-0.1
C#Cc1cccc(Nc2nc(NCCOC)nc3ccsc23)c1,·,1.6,·,·,i,0.4,·
CCOc1ccccc1C=C1SC(=S)N(CC)C1=O,0.708,0.0,0.2%,·,i,1.2,6.2
CCn1c(NCc2ccccn2)nc2ccccc21,0.706,·,1.0%,?,·,-4.0,0.4
COc1cc2c(=O)n(Cc3ccco3)c(=O)n(CC(=O)c3ccc(Br)cc3)c2cc1OC,0.703,·,-21.9%&-16.4%,3.3,·,3.4,1.9
CNC(=O)CSc1nnc(-c2ccco2)n1-c1cccc(C)c1,0.677,0.9,·,-0.5,i,0.1,0.1
CNC(=O)N(O)C1N(C)C(=O)N(CC(=O)OC)C1(C)C (centres undefined),0.661,·,4.5%,-5.9,·,3.9,1.5
CC(C)c1nc2sc3c(SCCN(C)C)ncnc3c2c2c1CCC2,0.66,4.5,·,·,i,0.5,5.3
COc1ccc(N=C2NC(=O)CS2)c([N+](=O)[O-])c1,0.713,-2.2,·,-1.1,i,-0.5,4.1

# Of the compounds above, two have a CF3 group.
SMILES,Ecoli growth,MLL AF4-AF9 inh,Vif A3G,RanGTP-Imp inh,FGF22 binding,HNF4A DNA FP,UCH37 inh
COc1ccc(-c2ncnc(C(F)(F)F)c2-c2csc(C)n2)c(O)c1,0.686,4.6,-12.2%,?,i,-1.6,5.7
Cc1cc(C)c(NC(=O)CNC(=O)COC(=O)C2CCN(c3ccc(C(F)(F)F)cn3)CC2)c(C)c1,0.731,1.6,4.2%,1.5,i,-0.6,-2.9
